Source: PubChem BioAssay
PrP 5UTR inh – inhibition of PrP 5' UTR reporter expression; 0.35% of 340,000 active; AID 488862; inhibition, % (no concentration beside the values); cell-based PrP 5' UTR mRNA reporter, plate reader;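 active = every replicate at 50% or more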;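 note: 0 = median of the neutral control wells; tested in H4 reporter cells; numbers are from one replicate; inactives centre near -14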
BJeLR lethal – BJeLR cell viability loss | inhibition, % (test concentration not listed) | 0.17% of 300,000 active | AID 1554 | BJeLR (HRASV12) viability, CellTiter-Glo ATP luminescence, 48 h; reference of the scale not given here;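 active = replicate mean above 50%; inconclusive = above 50% but judged a plate artefact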;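 note: 50 nL library stock added to about 25 µL; numbers are from one replicate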
Bead autofluor – compound fluorescence in toxin protease inhibitor counterscreen; compound autofluorescence counterscreen, microsphere flow cytometry; stronger effect = higher value; fluorescence intensity (no concentration beside the values); 3.1% of 360,000 active;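 active = at least 3 SD above the mean of all compounds, about 16000 in these data; inconclusive = too few beads counted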;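 note: 100 nL of 1 mM stock went into each well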
ugtP null kill – growth inhibition of S. aureus ugtP deletion strain | S. aureus RN4220 ugtP deletion, OD600 growth, 16 h; some inactives read as strong as hits | growth inhibition, % (concentration not given with the values) | 0.54% of 330,000 active;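 active = z-score under -3 and OD600 up to 0.15 on both plates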;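 note: plate controls were untreated wells for no effect and antibiotic for full effect; wells of about 80 µL received 100 nL stock; the first replicate is given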
Mtb hypoxia inh – inhibitors of hypoxia-regulated fluorescent reporter in Mycobacterium tuberculosis; M. tuberculosis hypoxia-regulated fluorescent reporter, fluorescence; fluorescence inhibition, % (test concentration not listed); 0.1% of 300,000 active; AID 1159583;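 active = 35 to 45% if threefold the growth effect, above 45% if 1.5-fold the growth effect; inactive = the rest, general growth blockers included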;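 note: wells of about 50 µL received 100 nL stock; 0% = vehicle wells and 100% = reference inhibitor wells; whole bacteria with a GFP reporter of the hypoxia response; strong numbers were not always called active; many hits fall short of the cut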
RN4220 kill – kills Staphylococcus aureus RN4220 | S. aureus RN4220 growth, OD600, 16 h | inhibition, % (concentration not given with the values) | 0.33% of 330,000 active;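 active = z-score of -3 or lower and OD600 up to 0.18 on both plates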;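 note: plate controls were untreated cells for no effect and reference antibiotic for full effect; stock transfer was 100 nL into about 80 µL; one replicate is shown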
Mtb hypoxia inh growth – second read-out of Mtb hypoxia inh, no call of its own (marks repeat the call); growth inhibition, %; measured here: M. tuberculosis growth (absorbance);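 0% = vehicle and 100% = reference antibiotic; read after six days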
* marks the source's active call; other numbers are inactive results; ? = inconclusive; / = no result given; & = joins results of further samples.

Value order: PrP 5UTR inh, BJeLR lethal, Bead autofluor, ugtP null kill, Mtb hypoxia inh, Mtb hypoxia inh growth, RN4220 kill
CCSc1nnc(NC(=O)C(CC)Oc2ccccc2)s1 (stereo not given)
 : -9, -6, 11972, -11, 2, 10, 1.6
CC(C)[C@H](NC(=O)c1ccccc1Cl)C(=O)OCc1cc(=O)n2cc(Br)ccc2n1
 : -13, 5, 4522, 1, 9, 2, 4.3
COc1ccc(-n2c(SC3CCOC3=O)nc3ccccc32)cc1 (stereo not given)
 : 5, 0, 2642, -3, /, /, 4.8
COC(=O)c1ccccc1NC(=O)CN(Cc1ccc(Cl)cc1)S(C)(=O)=O
 : 7, 3, 10357, -7, 2, -5, 1.7
COc1ccccc1-n1cc(CN2CCN(C3CCCCC3)C(CCO)C2)cn1 (stereo not given)
 : -13, 14, 5419, 8, 11, 6, 1.9
CCc1ccc(N(CC(=O)O)S(=O)(=O)c2c(C)noc2C)cc1
 : -19, -1, 6135, 7, /, /, 1.5
CCO[C@@H]1OC(C(=O)NCc2ccccc2)=C[C@H](c2csc3ccccc23)[C@H]1CCCO
 : 11, 0, 4205, /, /, /, /
Cc1nc2c(-c3ccc(F)cc3)c(C)nn2c(C)c1CCC(=O)N1CCN(c2ccc(F)cc2)CC1
 : -15, -9, 6108, 9, 8, -2, 3.8
O=S(=O)(c1ccc(Cl)cc1)N1CCN(Cc2cccnc2)CC1
 : -24, 2, 3584, 7, -1, 7, 3.3
COc1ccccc1C(=O)NC(=O)COC(=O)c1cccc(NC(C)=O)c1
 : -15, -2, 5748, -1, 1, 3, 0.6
O=C1NC[C@H](Cc2ccc(O)cc2)N(CCc2cccc3ccccc23)C1=O
 : -2, -3, 3939, /, /, /, /
CC(=O)C1=C(C)NC(=O)NC1c1ccc2c(c1)OCO2 (stereo not given)
 : -4, -3, 4747, 41, 10, 2, -1.9
OCc1cc(C(O)CNCCCCCCOCCCCc2ccccc2)ccc1O (stereo not given)
 : 14, -1&-1, 5838, /, /, /, /
Cn1c([N+](=O)[O-])cnc1COC(N)=O
 : -6, -1, 5768, -3, -1, 10, 2.5
C[C@H](NS(=O)(=O)c1ccc2c(c1)OCCCO2)C(=O)N1CCN(c2ccc(F)cc2)CC1
 : -20, /, 3013, 4, -2, 2, 2.7
CN(C)S(=O)(=O)c1ccc(Cl)c(NC(=O)COC(=O)/C=C/c2ccco2)c1
 : -5, -5, 4302, 7, 8, 10, 2.6
CCc1ccc2nc(N(CCCN(C)C)C(=O)c3ccc(S(=O)(=O)N4CCCC4)cc3)sc2c1
 : 1, 5, ?, 18, 9, 0, 3.3
COc1ccc(C=NNC(=O)C2CC2)c(OC)c1OC
 : /, /, /, 1, 10, 0, 3.1
O=C1CCCN1CCCNS(=O)(=O)c1ccc(Cl)c(C(=O)N2CCOCC2)c1
 : 14, 2, 6014, -1, -5, 0, 0.3
CCN(CC)CCN(C(=O)c1ccc2ccccc2c1)c1nc2cc3c(cc2s1)OCO3
 : -15, 4, 4670, 19, 2, 7, 0.0
NC(=O)Cc1nc(-c2ccc([N+](=O)[O-])cc2)cs1
 : -8, -2, 2226, 2, 4, 2, 7.2
CCN(CC(=O)NCc1ccccc1Cl)CC(=O)Nc1c(F)cccc1F
 : -17, -2, 4965, 3, 0, 0, 2.0
CCOC(=O)[C@@H]1[C@H]2COc3cc(OC)ccc3[C@H]2N2C(=O)N(c3ccc(C(F)(F)F)cc3)C(=O)[C@@]12C
 : -18, 5, 2832, /, /, /, /
CCc1nccn1S(=O)(=O)c1ccc(Br)cc1Br
 : -11, -12, 2775, -5, /, /, -1.4
Cn1cc(C(=O)NCc2ccccc2F)cn1
 : -5, 1, 10764, 1, -6, -3, -2.1
COC(=O)CCCNC(=O)CN1CC(c2ccccc2)CC1=O (stereo not given)
 : -3, -3, 2747, -8, /, /, 3.0
CCCOc1ccc(NC(=O)Cc2ccc(S(=O)(=O)N3CCOCC3)s2)cc1OCCC
 : -14, -2, /, 2, 5, -12, 1.4
CCOC(=O)c1cc2c(nc1N)CC(C)(CC)OC2 (stereo not given)
 : -33, 3, 3578, 5, /, /, 6.2
Cc1ccc2[nH]c(C(=O)O)c(NC(=O)CN3CCN(c4cccc(C)c4C)CC3)c2c1
 : -13, -1, 2758, 2, /, /, -0.2
CCCCn1c(N)c(N(CCOC)C(=O)COC(=O)c2cc(CC)c(C)s2)c(=O)[nH]c1=O
 : -3, 1, 5719, 5, -3, -6, 2.4
O=S(=O)(c1ccc(Br)cc1)N1CCC2(CC1)OCCO2
 : -7, 6, /, 16, 3, 2, 4.3
CCOCCCn1c(=S)[nH]c2cc3c(cc2c1=O)OCO3
 : -26, -2, 8375, 2, 4, 6, 0.5
CCC(=O)Nc1sc2c(c1C#N)CC(C)(C)NC2(C)C
 : -70, -2, 3780, 5, 10, 12, 5.3
COCCn1c(SCCN2CCCCC2)nc2ccccc2c1=O
 : -22, -13, ?, 5, 3, -1, 4.2
COCCN(C(=O)C1=COCCO1)c1c(N)n(Cc2ccccc2)c(=O)[nH]c1=O
 : -28, -6, 5715, -5, 12, 4, 1.0
C=CCn1c(C#N)c(N)sc1=N
 : 6, 3, 3059, 7, /, /, -1.0
N#CCCN(C(=O)COC(=O)CCc1nc2ccccc2c(=O)[nH]1)c1ccccc1F
 : -21, /, 3469, 7, 9, 3, 2.4
Cc1ccc(S(=O)(=O)n2ccc3cccnc32)cc1
 : -24, -1, 4525, 6, 9, 9, 8.4
Cc1cc(C)cc(OCC(=O)OCC(=O)N(C)CC(=O)Nc2ccc(F)cc2)c1
 : -16, -11, 5890, 2, 8, -5, 5.5
COc1ccc2[nH]c3c(c2c1)CCN=C3C
 : 0, /, 5852, -4, -2, -4, 6.3
Cc1ccc(-c2c(C(=O)NN=CC3CCCCC3)nnn2-c2nonc2N)cc1
 : /, /, /, -3, 9, 15, 3.1
O=C(Nc1cccc(C(F)(F)F)c1)NC1CCCCC1
 : -7, -9, 2890, -19, 6, 21, -15
COc1ccc(N2CCN(S(=O)(=O)/C=C/c3ccccc3)CC2)cc1
 : -23, -7, 9166, 2, 6, 10, 3.8
Cn1cc(C2OC(=O)c3ccccc32)c2ccccc21 (stereo not given)
 : -6, /, 3758, 0, 5, 14, 2.4
COc1ccc2[nH]c3c(NCCN(C(C)C)C(C)C)ncnc3c2c1
 : -75, /, 3727, 5, 7, -7, -9.1
Cc1oc(-c2ccccc2)nc1Cn1cccc1C1=NC(c2ccccc2)CO1 (stereo not given)
 : -16, -17, 4692, 20, -5, 1, -5.4
COc1ccc(/C=N/NS(=O)(=O)c2ccc(C)cc2)cc1OC(=O)c1ccccc1
 : -21, 0, 2868, /, /, /, /
Cc1ccc(NC(=O)c2ccc3c(=O)n4c(nc3c2)CCCCC4)cc1F
 : -14, 7, 5582, -6, 0, 5, 4.3
CC(C)(C)C(=O)CN1C(=O)NC(c2ccccc2)(c2ccccc2)C1=O
 : -13, -4, 4107, 3, -4, 0, 2.9
CCC(C)NC(=O)CC(NS(=O)(=O)c1ccc(NC(C)=O)cc1)C(C)C (stereo not given)
 : -21, 14, 4432, 0, 17, 5, 2.6
CCOc1ccc(OCCNC(=O)c2ccc3c(c2)nnn3CC)cc1
 : -17, /, 6162, 7, 13, 11, 3.2
CCn1c(SCC(=O)c2cc(OC)ccc2OC)nnc1-c1ccncc1
 : -19, 2, 4352, 7, 9, 4, 2.7
COc1cccc2sc(N(CCN(C)C)C(=O)c3ccc(S(=O)(=O)N4CCCC4)cc3)nc12
 : -22, 4, 6174, 3, -4, 1, -0.8
CC(=O)c1cccc(N(CC(=O)NCC2CCCO2)C(=O)CCC(=O)Nc2cc(C)on2)c1 (stereo not given)
 : -19, 0, ?, -4, /, /, 0.3
O=C(COC(=O)/C=C/c1ccccc1)NC1CCS(=O)(=O)C1 (stereo not given)
 : /, /, 4077, -2, -4, -6, -1.6
Nc1ccccc1C(=O)OCCc1ccccc1
 : -53, /, 5447, 1, 13, 13, 5.3
COc1ccc(S(=O)(=O)N2CCOCC2)cc1NC(=O)c1ccc(Cl)cc1
 : -8, 0, /, 6, 7, 0, 3.6
Cc1ccc(C(=O)NN=C(CC(C)C)c2ccccc2)cc1
 : /, /, /, -12, 0, -5, 0.8
CC(=O)Nc1ccc2c(c1)ncn2C1CCCCC1
 : -14, 0, 4048, -3, 3, 11, 1.6
CC1CCN(S(=O)(=O)c2ccc3c(c2)N(CC(=O)NCCCN(Cc2ccccc2)C(C)C)C(=O)CO3)CC1
 : -4, -1, 4575, 9, 2, -4, 3.3

2 neighbouring records from above:
Value order: PrP 5UTR inh, BJeLR lethal, Bead autofluor, ugtP null kill, Mtb hypoxia inh, Mtb hypoxia inh growth, RN4220 kill
CCN(CC(=O)NCc1ccccc1Cl)CC(=O)Nc1c(F)cccc1F
 : -17, -2, 4965, 3, 0, 0, 2.0
CCOC(=O)[C@@H]1[C@H]2COc3cc(OC)ccc3[C@H]2N2C(=O)N(c3ccc(C(F)(F)F)cc3)C(=O)[C@@]12C
 : -18, 5, 2832, /, /, /, /

Nine of these compounds in another layout.
SMILES | PrP 5UTR inh | BJeLR lethal | Bead autofluor | ugtP null kill | Mtb hypoxia inh | Mtb hypoxia inh growth | RN4220 kill
O=S(=O)(c1ccc(Br)cc1)N1CCC2(CC1)OCCO2 | -7 | 6 | / | 16 | 3 | 2 | 4.3
CCOCCCn1c(=S)[nH]c2cc3c(cc2c1=O)OCO3 | -26 | -2 | 8375 | 2 | 4 | 6 | 0.5
CCC(=O)Nc1sc2c(c1C#N)CC(C)(C)NC2(C)C | -70 | -2 | 3780 | 5 | 10 | 12 | 5.3
COCCn1c(SCCN2CCCCC2)nc2ccccc2c1=O | -22 | -13 | ? | 5 | 3 | -1 | 4.2
COCCN(C(=O)C1=COCCO1)c1c(N)n(Cc2ccccc2)c(=O)[nH]c1=O | -28 | -6 | 5715 | -5 | 12 | 4 | 1.0
C=CCn1c(C#N)c(N)sc1=N | 6 | 3 | 3059 | 7 | / | / | -1.0
N#CCCN(C(=O)COC(=O)CCc1nc2ccccc2c(=O)[nH]1)c1ccccc1F | -21 | / | 3469 | 7 | 9 | 3 | 2.4
Cc1ccc(S(=O)(=O)n2ccc3cccnc32)cc1 | -24 | -1 | 4525 | 6 | 9 | 9 | 8.4
Cc1cc(C)cc(OCC(=O)OCC(=O)N(C)CC(=O)Nc2ccc(F)cc2)c1 | -16 | -11 | 5890 | 2 | 8 | -5 | 5.5

Other entries follow:
Value order: PrP 5UTR inh, BJeLR lethal, Bead autofluor, ugtP null kill, Mtb hypoxia inh, Mtb hypoxia inh growth, RN4220 kill
CCOC(=O)C(=CNc1ccc(O)c(C(=O)OC)c1)C(=O)OCC
 : -9, -2, 4028, 4, 3, 11, 5.5
COc1ccc(Br)cc1C(=O)Nc1cccc(C)c1C
 : -33, 7, 7099, -8, 9, 4, 8.7
Cc1ccc(CN2CCN(Cc3ccc(-n4cccn4)cc3)CC2CCO)cc1 (stereo not given)
 : -27, -1, 5578, 2, -1, 5, 0.4
O=C(COc1ccc2ccccc2c1)N/N=C/C1CC=CCC1 (stereo not given)
 : 5, 7, 9134, /, /, /, /
CC12CC(c3ccccc3O1)C(/C(N)=N/NC(=O)c1ccc(F)cc1)C(=O)N2 (stereo not given)
 : -34, -7, 2750, 6, 10, 0, 5.1
CN(C(=O)COC(=O)c1nc(Cl)ccc1Cl)C1CCS(=O)(=O)C1 (stereo not given)
 : -8, 4, 4637, 1, -1, 1, 1.5
Cc1cc(C)cc(N(CC(=O)NCc2ccco2)S(=O)(=O)c2c(C)noc2C)c1
 : 5, 6, 5632, 3, /, /, 2.3
CCN(CC)C(=O)N1CCC(NC(=O)c2ccccc2)CC1
 : -22, -2, 10369, 0, 16, 11, 6.7
